T cruzi inh: blocks replication of Trypanosoma cruzi; 300,000 compounds, 1.4% hits; inhibition, % (concentration not given with the values); T. cruzi beta-gal in NIH3T3, luminescence, 90 h; AID 1885;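 active = mean inhibition across valid replicates above about 55%, limit read from the data; inconclusive = mean below that limit but half or more replicates reach it; inactive = mean below it, under half of replicates reach it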;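 note: signal also drops with host cell toxicity which is not excluded here; 0% = plate median of DMSO wells and 100% = zero luminescence signal; higher percent means less beta-gal luminescence so fewer parasites; stock transfer was 50 nL into about 50 µL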
Beta cell apopt: blocks beta cell apoptosis; INS-1E cytokine-induced death, ATP luminescence, 48 h; percent of positive-control rescue, neutral wells zero; protection from apoptosis, % (no concentration beside the values); 300,000 compounds, 0.8% hits;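 active = all replicates at 75% or more, or half of them and the mean; inconclusive = half reach 75% but not the mean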;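 note: 0% = cytokine-treated negative control wells and 100% = positive control rescue; higher means more ATP so stronger rescue from cytokine killing; wells of about 40 µL received 100 nL stock; the first replicate is given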
rRNA inh HTS: inhibitors of bacterial rRNA selective over humanized ribosomes; E. coli WT GFP vs humanized-ribosome RFP mutants, fluorescence, 24 h; hits give low values; DMSO median 0, no signal -100; GFP signal change (wild-type ribosome), % (no concentration beside the values); 350,000 compounds, 1.6% hits;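 active = significant combined selectivity score with lowered wild-type GFP, culture density cut under 30%, mutant RFP and density less affected; inactive = any of these conditions unmet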; note: one replicate is shown; some compounds called inactive have numbers as strong as hits
Calb FLC: affects C. albicans growth with fluconazole; C. albicans CaCi-2 (fluconazole-resistant clinical isolate) + fluconazole, Alamar Blue growth, 48 h; growth inhibition, % (concentration not given with the values); 300,000 compounds, 0.57% hits; AID 1979;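 active = most replicates above 75%; inconclusive = exactly half above 75%; inactive = most below 75%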;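 note: all wells also contain fluconazole at 8 µg/ml as a sub-toxic cotreatment; 0% = median of DMSO wells and 100% = median of geldanamycin control wells; wells of about 8 µL received 7.5 nL stock; the first replicate is given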
ALR H2O2 inh: inhibitors of human sulfhydryl oxidase ALR; P55789; purified ALR, DTT oxidation, H2O2 HRP-luminol luminescence; inhibition, % (concentration not given with the values); 290,000 compounds, 3.8% hits; AID 485317;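 active = mean and each replicate at 75% or more; inconclusive = only one of the two met; inactive = neither met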;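 note: stock transfer was 7.5 nL into about 7.5 µL; 0% = neutral wells and 100% = wells with inactivated enzyme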
Target sequence (P55789 whole entry, looked up): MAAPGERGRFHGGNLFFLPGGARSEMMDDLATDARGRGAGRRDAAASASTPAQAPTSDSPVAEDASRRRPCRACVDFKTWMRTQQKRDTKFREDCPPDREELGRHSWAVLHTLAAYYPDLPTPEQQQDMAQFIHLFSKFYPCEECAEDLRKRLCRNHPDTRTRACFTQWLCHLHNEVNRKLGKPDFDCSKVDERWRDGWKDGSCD
Bfl-1 A1 inh: inhibitors of the anti-apoptotic protein A1, read as caspase activation. MEF A1-2A-BIM cells, Caspase-Glo 3/7 luminescence, 3 h; percent of clofoctol response, vehicle zero. AID 2462. caspase activation, % (concentration not given with the values). 330,000 compounds, 0.066% hits;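 active = over half of replicate activation scores above 10%, or exactly half above 10 with the replicate mean above 10; inconclusive = replicate mean below 10 yet half the replicates above 10; inactive = over half of replicates below 10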;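 note: wells of about 30 µL received 50 nL stock; many hits fall short of the cut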
B2AR ag: agonists of human beta-2 adrenergic receptor inducing internalization | P07550 | response, % (no concentration beside the values) | Am2.2-beta2AR cells, FAP receptor internalization, flow cytometry; reference of the scale not given here | AID 504454 | 340,000 compounds, 0.43% hits;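 active = response above a set limit, near 3 SD of response in nonfluorescent compounds, cut at about 42% in these data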;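 note: stock transfer was 100 nL into about 11 µL; a reference agonist was the positive control; negative values mostly stem from fluorescent compounds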
Target sequence (P07550 whole entry, looked up): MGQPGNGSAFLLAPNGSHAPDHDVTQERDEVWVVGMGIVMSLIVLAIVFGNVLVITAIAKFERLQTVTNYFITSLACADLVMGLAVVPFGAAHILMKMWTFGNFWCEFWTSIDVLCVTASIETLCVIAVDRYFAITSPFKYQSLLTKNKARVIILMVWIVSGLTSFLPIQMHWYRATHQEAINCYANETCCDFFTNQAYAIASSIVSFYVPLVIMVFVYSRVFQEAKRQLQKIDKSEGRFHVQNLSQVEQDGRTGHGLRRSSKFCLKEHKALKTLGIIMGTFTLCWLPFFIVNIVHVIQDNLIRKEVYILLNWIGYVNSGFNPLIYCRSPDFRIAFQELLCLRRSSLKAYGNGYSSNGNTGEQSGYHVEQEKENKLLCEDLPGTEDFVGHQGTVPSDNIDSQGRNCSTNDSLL
LANA-H2B inh: blocks KSHV LANA binding to histone H2A/H2B; Q9QR71; cell-free LANA-H2A/H2B peptide, fluorescence polarization; inhibition, % (test concentration not listed); 320,000 compounds, 0.6% hits; AID 2629; in the data active = inhibition mostly above about 10%, no sharp cut-off; inactive = mostly below about 6.7%;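 note: stock transfer was 7.5 nL into about 10 µL; 0% = median of vehicle wells and 100% = median of positive control wells; one replicate is shown; the record names a cut of 25% in any replicate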
rRNA inh HTS OD600: second read-out of rRNA inh HTS, no call of its own (marks repeat the call); OD600 change, %; measured here: OD600 growth;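 optical density of the mix in the first replicate; 0 = DMSO median and -100 = no signal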
rRNA inh HTS RFP: recorded beside rRNA inh HTS, whose call it bears; RFP signal change, %; measured here: RFP humanized mutant strains;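 first replicate; 0 = DMSO median and -100 = no signal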
Starred values were filed as active, the others as inactive; ? = inconclusive; . = no result given.

SMILES | T cruzi inh | Beta cell apopt | rRNA inh HTS | rRNA inh HTS OD600 | rRNA inh HTS RFP | Calb FLC | ALR H2O2 inh | Bfl-1 A1 inh | B2AR ag | LANA-H2B inh
Cc1cccc(NC(=O)/C(C#N)=C\c2cccnc2)c1 | -9.7 | -6.1 | . | . | . | -11.0 | 17.5 | 0.2 | 10.3 | -1.2
CCOc1ccc(/C=C/C(=O)NCCc2ccc(OC)c(OC)c2)cc1 | -6.8 | 0.3 | . | . | . | -5.3 | -7.5 | -0.5 | -8.3 | 3.2
Cc1ccc(S(=O)(=O)/C(C#N)=C/c2c(N3CCOCC3)nc3c(C)cccn3c2=O)cc1 | -1.2 | -2.6 | 11.4 | -9.6 | 37.8 | -0.4 | -18.9 | -0.2 | 1.9 | -4.4
Cc1ccc(OCCC(=O)Nc2ccccc2C(=O)N2CCCCC2)cc1 | -4.5 | 1.1 | -3.4 | -5.3 | -1.0 | 6.8 | 9.4 | -0.1 | 2.8 | 0.1
Cc1cc(Cl)ccc1NC(=S)NCC(C)C | -8.0 | -0.9 | -2.1 | 2.6 | -8.1 | 1.3 | -1.7 | 3.0 | 4.7 | 10.2
Cc1noc(C)c1C(=O)Nc1ccc(S(=O)(=O)N2CCC(C)CC2)cc1 | . | 6.1 | 3.6 | 1.9 | 0.3 | . | -18.4 | -0.3 | -6.3 | -4.2
COc1ccc(C(CNC(=O)c2ccccc2SC)N(C)C)cc1 (stereo unspecified) | 24.6 | -1.3 | 6.1 | 7.2 | -3.3 | 1.6 | -1.6 | -0.5 | -2.4 | 2.4
COc1ccc(C(=O)Oc2ccc(-c3nnco3)cc2)cc1S(=O)(=O)N1CCOCC1 | -15.9 | -6.1 | 8.8 | 9.1 | -0.5 | . | 34.2 | -0.4 | 16.6 | 3.1
N#Cc1c(C#N)c(-c2ccccc2)n(-c2ccc(C(=O)O)cc2)c1N | -11.7 | -4.6 | . | . | . | 3.5 | 26.9 | 0.1 | -2.7 | -3.9
COc1ccc2[nH]cc(C=O)c2c1 | -5.8 | -3.0 | . | . | . | ? | 8.5 | 0.3 | -1.5 | -4.7
COCCCNC(=O)c1c[nH]c2ccc(S(=O)(=O)N(C)c3ccccc3C)cc2c1=O | -7.2 | -1.0 | -0.6 | 5.4 | 0.5 | 7.4 | 13.6 | -0.2 | 1.3 | -2.1
O=C(Nc1cccc(F)c1)C1CCN(C(=O)c2ccco2)CC1 | -5.1 | -4.7 | 4.8 | -1.5 | 0.4 | 2.5 | 1.0 | -0.4 | -6.2 | 4.5
CC(=O)N1CCOc2cc(S(=O)(=O)N3CCN(c4ccccc4)CC3)c(Cl)cc21 | -9.7 | -2.1 | -3.4 | -2.6 | -2.5 | -2.7 | -3.3 | -0.6 | -5.5 | -1.0
CCOc1ccc(-n2c(C)nc3cc(C(=O)NCC4CCCO4)ccc32)cc1 (stereo unspecified) | -0.7 | -4.4 | -3.0 | 0.3 | 1.7 | 3.8 | -15.2 | 0.7 | -12.2 | -1.7
COc1cccc(C(C(=O)NC(C)(C)C)N(CCc2ccccc2)C(=O)CCC(=O)Nc2cc(C)on2)c1OC (stereo unspecified) | 2.4 | 2.5 | 1.0 | 3.4 | -2.1 | 12.7 | . | 0.3 | 4.0 | 0.3
O=C(/C=C\Nc1ccc(Cl)cn1)c1ccc(Br)cc1 | -1.8 | -4.9 | 5.1 | 7.4 | 1.7 | -1.2 | 10.9 | -2.7 | 1.3 | 0.6
CCN1CCN(C(=O)C(C)Sc2nc3nc(C)cc(C)n3n2)CC1 (stereo unspecified) | . | -1.2 | . | . | . | . | -0.6 | 0.4 | -11.8 | -8.6
Cc1ccc(S(=O)(=O)N(C)C)cc1NC(=O)c1cc(C(C)(C)C)nn1Cc1ccccc1 | 37.8 | 16.4 | -9.5 | -12.1 | -3.5 | -2.4 | . | 1.0 | 1.9 | 2.1
Cc1ccnc(NS(=O)(=O)c2ccc(NC(=O)c3ccc(N4C(=O)CCC4=O)cc3)cc2)n1 | -1.1 | . | 15.6 | 8.8 | 1.1 | -5.6 | -3.9 | 1.0 | 0.4 | 0.4
CC(NC(=O)CSc1ccccc1)c1ccccc1 (stereo unspecified) | -7.9 | -2.7 | 0.8 | 1.2 | 1.3 | 3.4 | -8.5 | 0.7 | -0.7 | -2.0
COc1ccc(C(C)=O)cc1CSc1nnnn1-c1ccc(O)cc1 | -4.7 | 7.6 | -48.3* | -25.9* | -17.3* | -0.8 | -6.1 | 0.5 | -11.5 | -4.2
Cc1nc2ncnn2c(C)c1CCC(=O)NCc1ccc2c(c1)OCO2 | -1.7 | -6.5 | . | . | . | -23.4 | -17.3 | -1.8 | 7.1 | -3.7
COCCCNC(=O)CC(NS(=O)(=O)c1ccc(C)cc1)c1ccco1 (stereo unspecified) | -8.6 | 0.5 | . | . | . | -3.0 | -2.7 | 1.3 | -2.3 | -2.3
CCOC(=O)C1=C(COC(=O)COc2cc(C)ccc2C)NC(=O)NC1C (stereo unspecified) | -2.2 | -4.4 | -1.8 | -4.3 | -2.9 | 4.3 | -17.6 | 0.3 | -2.4 | 2.1
CC1CCC(NC(=O)c2cc3c(=O)n(C)c4ccccc4c3n2C)CC1 (stereo unspecified) | 18.8 | 8.1 | 5.7 | 8.6 | 3.3 | 10.1 | -4.2 | -0.1 | 5.5 | 0.4
Cc1nc([N+](=O)[O-])c(C(=O)OCc2cccc(Br)c2)n1C | -1.6 | 1.3 | -17.6* | -4.5* | 5.2* | 13.0 | 3.3 | -0.3 | -7.6 | 5.4
O=C(Cc1cccc2ccccc12)NCC1CCCO1 (stereo unspecified) | -20.2 | -3.3 | . | . | . | 6.3 | 39.2 | 0.5 | -8.3 | -1.4
O=C(NC1CCCCC1)C1CCN(S(=O)(=O)c2cccs2)CC1 | 0.7 | 0.1 | . | . | . | 2.3 | -0.9 | 0.2 | 1.2 | 2.2
Cc1ccn2c(NC(=O)C(C)(C)Oc3ccc(Cl)cc3)c(-c3cccs3)nc2c1 | -1.6 | -26.3 | . | . | . | -3.3 | 1.1 | 0.3 | -0.3 | -0.1
CCOC(=O)Cc1nn[nH]n1 | 1.1 | . | 8.9 | 8.9 | -0.1 | 12.3 | -3.4 | -0.4 | 3.8 | 0.5
COc1ccc(-c2coc3cc(O)cc(O)c3c2=O)cc1OC | -3.5 | 2.6 | -5.4 | -11.3 | -2.1 | 4.2 | -1.0 | -0.9 | 4.6 | 4.2
NC(=O)c1ccc(N=C2C(=O)Nc3ccc([N+](=O)[O-])cc32)cc1 | 23.4 | -4.7 | -8.0 | 7.9 | -0.5 | -18.7 | 23.8 | -0.3 | -0.7 | -1.9
COc1ccc(Br)cc1[C@H]1[C@H]2C=CC[C@@H](C)[C@@H]2C(=O)N1Cc1ccccc1 | 4.3 | . | 1.6 | -7.0 | -10.3 | -0.9 | . | . | 20.0 | .
COC(=O)c1ccsc1-n1cc(C#N)c(=O)n(C)c1=O | -6.3 | 0.0 | 12.1 | 14.7 | 5.7 | 10.3 | 4.1 | -0.3 | 5.7 | -3.4
CCOC(=O)c1c(NC(=S)N2CCOCC2)sc(C)c1C | 11.0 | . | 1.7 | -8.9 | 0.8 | 3.4 | 9.9 | 1.0 | -1.2 | -2.7
CCOC(=O)c1ccc(-c2cc(C)no2)[nH]1 | 6.6 | -11.1 | . | . | . | -9.2 | -1.7 | 0.3 | -7.2 | -0.8
Cc1cc(NC(=O)CSc2nc3ccsc3c(=O)n2CCCCC(=O)O)no1 | 3.7 | -0.8 | 5.9 | -1.6 | -7.1 | -2.0 | -2.2 | -0.9 | -1.2 | -0.8
CCOC(=O)n1c(=O)[nH]c2ccc(Br)cc21 | 2.3 | 1.7 | -15.9 | -16.4 | -4.6 | -4.3 | 25.8 | -0.3 | -0.7 | 8.6
Oc1ccc(C[C@@H]2CNCCN2CCCCC2CCCCC2)cc1 | 11.0 | 1.9 | -17.9 | -26.1 | -4.2 | -2.2 | 1.4 | ? | 29.6 | 1.0
CCN(C(=O)COC(=O)/C=C/c1cccc(Cl)c1)c1c(N)n(Cc2ccccc2)c(=O)[nH]c1=O | . | 2.7 | 5.2 | 9.8 | -0.5 | . | 0.3 | -0.7 | -8.7 | -3.1
CC(CNC(=O)CCS(=O)(=O)c1ccc2c(c1)NC(=O)CO2)c1ccccc1 (stereo unspecified) | 8.0 | -5.4 | 11.8 | 16.7 | 1.4 | -5.6 | -1.8 | 0.7 | -0.7 | 2.6
COc1ccccc1-c1noc(CCC(=O)Nc2cc(C(F)(F)F)ccc2Cl)n1 | 18.3 | -0.8 | . | . | . | 7.8 | 2.1 | 0.3 | -12.1 | -1.8
COc1ccc(C(=O)NCCSCc2ccccc2)cc1OC | -8.8 | . | 4.9 | -9.3 | -2.3 | -5.6 | -7.0 | 0.3 | 4.0 | 0.8
COc1cccc(C(=O)N/N=C(\C)c2ccc(NC(=O)Cc3ccccc3)cc2)c1OC | -8.0 | -1.8 | 2.2 | 2.2 | -1.8 | 12.5 | -6.5 | 0.0 | -3.1 | -0.3
CCCc1ccc(OCc2ccc(C(=O)N/N=C/c3cccnc3)o2)cc1 | -0.5 | -1.8 | 0.9 | 0.9 | -2.4 | -0.5 | -9.1 | -0.4 | -14.6 | 4.2
CC1Oc2ccccc2OC1C(=O)Nc1ccccn1 (stereo unspecified) | -4.4 | -4.8 | . | . | . | 2.7 | -35.9 | -0.2 | 3.1 | 7.4
O=C(/C=C/c1cccc(F)c1)Nc1ccc(S(=O)(=O)N2CCOCC2)cc1 | . | 8.7 | 0.0 | 5.3 | -8.3 | . | -3.3 | -0.4 | 14.7 | -1.0
Cc1ccc2nc(SCC(=O)NCc3ccc(F)cc3)nc(=O)n2c1 | 5.3 | . | -2.3 | -7.2 | 1.4 | -13.0 | 2.1 | -0.1 | 3.1 | -5.8
CCN(C(=O)COc1cc(=O)n(C)c2ccccc12)c1cccc(Cl)c1 | 7.9 | 5.2 | . | . | . | -10.2 | -8.6 | 0.0 | -7.5 | -0.9
COc1ccc(-n2c(SCC(C)=O)nc3sc(C)c(C)c3c2=O)cc1 | 17.5 | 4.2 | 7.1 | 11.8 | 2.0 | 11.3 | 1.4 | 1.4 | -7.0 | 0.3
COc1ccc(NC(=O)c2c(F)cccc2Cl)cc1S(=O)(=O)N1CCOCC1 | . | -3.1 | 5.3 | -4.2 | 5.6 | . | . | 0.7 | 0.9 | -6.2

Compound activity (PubChem BioAssay)

Not all compounds are listed; rates above refer to the full screens.
